Sa growth 42C – blocks Staphylococcus aureus growth; S. aureus RN4220 growth, OD600, 20 h, 42 °C; hits give low values; relative growth, % (test concentration not listed); hit rate 0.53% among 170,000;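 active = growth at 42 °C up to 50% and 20 or more points under that at 30 °C, or under 10% at both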;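 also: 300 nL library stock went into each well; scaled to the means of positive and negative controls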
HCMV NEC inh – cytomegalovirus nuclear egress complex inhibition; HTRF UL50-UL53 interaction, normalized percent inhibition; inhibition, % (no concentration beside the values); hit rate 0.15% among 190,000; AID 1918969;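 active = both replicates at 50% or more, plus weaker picks with an unusually low signal ratio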;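 also: stock transfer was 100 nL into about 20 µL; 0% = negative control wells and 100% = wells with untagged competitor protein; inactives centre near -12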
GIV-Gai inh – blocks GIV peptide binding to rat Galpha-i3; AID 1224905; percent of control (FP), % (concentration not given with the values); Galpha-i3/FITC-GIV peptide fluorescence polarization, 90 min; hits give low values; scaled: aluminum fluoride 0%, vehicle 100%; P08753; hit rate 0.42% among 210,000;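 active = replicate mean at 85% of control or lower, very high polarization wells dropped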;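 also: wells of about 15 µL received 100 nL stock; the first replicate is given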
Target sequence (P08753 whole entry, looked up): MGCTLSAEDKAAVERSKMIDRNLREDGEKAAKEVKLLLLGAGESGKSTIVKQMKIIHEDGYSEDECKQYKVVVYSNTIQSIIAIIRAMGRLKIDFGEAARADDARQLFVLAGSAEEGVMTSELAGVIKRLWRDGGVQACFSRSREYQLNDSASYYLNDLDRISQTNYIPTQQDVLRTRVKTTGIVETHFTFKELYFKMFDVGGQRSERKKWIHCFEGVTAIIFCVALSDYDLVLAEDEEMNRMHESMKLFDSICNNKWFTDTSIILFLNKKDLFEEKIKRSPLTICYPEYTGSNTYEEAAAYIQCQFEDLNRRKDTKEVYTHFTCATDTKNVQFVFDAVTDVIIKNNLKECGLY
Sa growth 42C second temp – recorded beside Sa growth 42C, whose call it bears; relative growth, %; measured here: growth at 30 °C;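 optical density after 20 h as mean of two plates; 100% = untreated growth and lower means inhibition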
* hit, by the source's call; / = not tested or not shown; & = joins results of further samples.

SMILES	Sa growth 42C	Sa growth 42C second temp	HCMV NEC inh	GIV-Gai inh
Cc1cccc(Cn2cccc2CNS(=O)(=O)c2c(C)noc2C)c1	/	/	-32	108
CC1CCN(C(=O)c2csc(S(=O)(=O)NC3CC3)c2)CC1	/	/	-28	106
Cc1ccc(CN2CCN(CC(=O)Nc3ccc(C)c(C)c3)S2(=O)=O)cc1	87	95	/	98
COC(=O)c1sc(SC)c(-c2ccn(C(=O)c3ccc(Cl)cc3)n2)c1C	95	98	-27	111
COc1ccc(CCNC(=O)CSc2nc3ccc(C)cc3[nH]2)cc1	129	82	-19	/
Cc1cc(C)c2c(CC(=O)N(CCC#N)Cc3cccnc3)coc2c1	94	92	-6	102
CC(NC(=O)c1ccccc1)C(=O)NC1=NCCS1 (centres undefined)	78	94	-2	102
CCOC(=O)c1oc2ccc(S(=O)(=O)n3nc(-c4ccccc4OC)cc3N)cc2c1C	107	83	-5	103
COCCN(Cc1ccccc1)C(=O)c1cnn(-c2ccccc2)n1	92	86	-5	/
CN=C(C)c1c(O)c2ccccc2oc1=O	104	78	/	97
N#Cc1ccc(COc2cnc3ccccc3n2)cc1	87	82	-80	/
COc1ccc(OCC(=O)N2CCC3(CC2)Nc2ccccc2-n2cccc23)cc1	/	/	-16	107
COc1ccc(CC(=O)Nc2c[nH]c(=O)[nH]c2=O)cc1OC	94	91	1	/
CCc1ccc(-n2c(=O)c3cccnc3n2CC(=O)NC2CCCCC2)cc1	/	/	-14	107
CCc1cccc(NC(=O)COC(=O)c2cn(CC)c3nc(C)ccc3c2=O)c1	106	108	-10	100
Nc1nc(-c2cc3ccccc3oc2=O)nc2c1c(=O)oc1ccccc12	104	95	-2	/
Cc1ccc(CNC(=O)c2nnn(Cc3ccc(F)cc3)c2N)cc1	114	96	-18	102
FC(F)(F)c1cccc(C(c2nnnn2Cc2ccccc2)N(Cc2ccco2)CC2CCCO2)c1 (centres undefined)	117	77	12	99
Cc1ccc2[nH]c3c(=O)n(CC(=O)NCCCN4CCN(c5ccc(F)cc5)CC4)ncc3c2c1	114	87	/	106
Cc1nc(-c2cccc(F)c2)sc1CCNC(=O)c1ccc(F)c(F)c1	87	76	/	100

Some of the entries so far, with each value named:
COC(=O)c1sc(SC)c(-c2ccn(C(=O)c3ccc(Cl)cc3)n2)c1C
  Sa growth 42C: 95 | Sa growth 42C second temp: 98 | HCMV NEC inh: -27 | GIV-Gai inh: 111

COc1ccc(CCNC(=O)CSc2nc3ccc(C)cc3[nH]2)cc1
  Sa growth 42C: 129 | Sa growth 42C second temp: 82 | HCMV NEC inh: -19 | GIV-Gai inh: /

Following part.
SMILES	Sa growth 42C	Sa growth 42C second temp	HCMV NEC inh	GIV-Gai inh
N#CCN(CC#N)C(=O)c1cccc(Cl)c1	95	116	-1	109
COc1ccc(C2NC(=O)c3c(sc4c3CCN(C)C4)N2)cc1O (centres undefined)	100	90	-87	113
Cc1ccccc1-c1nc2cc(NC(=O)c3cccc(F)c3)ccc2o1	91	83	/	104
CC(CC(=O)N1CCOCC1)c1ccccc1 (centres undefined)	115	101	10	108
CCn1c2c(c3cc(C)ccc31)CCCC2=O	90	97	-14&-31	103&103
Cc1ccc(C(=O)COC(=O)CCC(=O)Nc2ccc(Oc3ccccc3)cc2)cc1C	94	86	-29	104
Cc1ccc(Cl)cc1NC(=O)Cn1cnc2c(cnn2C)c1=O	86	84	/	105
COc1cc(C)ccc1OCCCn1c(-c2ccc(Cl)cc2)nc2ccccc2c1=O	109	99	-5	101
Clc1ccc(/C=N/N2CCCCC2)cc1	109	85	-31	105
CCOC(=O)c1[nH]c2ccc(Br)cc2c1C	103	93	-18	106
O=C(O)c1cc(N2CCN(c3ccccc3)CC2)nc2ccc(NS(=O)(=O)c3ccc(F)cc3)cc12	/	/	-35	96
N#C/C(=C/c1ccc(-c2cccc(C(F)(F)F)c2)o1)c1ccc(C#N)cc1	116	87	-10	111
O=C(c1c(F)cccc1F)N1CC(OCc2ccccc2F)C1	/	/	-16	99
O=C(O)CCc1nc2c3c4c(sc3ncn2n1)CCCC4	101	91	6	98
CCOc1ccc(NC(=O)Cn2cc(C(=O)C3CC3)c3ccccc32)cc1	104	89	-5	99
CC1=CC(=N/C(C)=N/S(=O)(=O)c2ccc(C)cc2)C=C(C)C1=O	95	93	8	/
Cc1cccc(Cn2c(C)c(CNC3CCCCCC3)c(C(=O)O)c2C)c1	108	89	-22	110
Fc1ccc(/C=N/c2nnc3nc[nH]n23)cc1	91	88	-37	/
Cc1c(C(=O)N2CCCCCC2)c(S(=O)(=O)Nc2cccc(C#N)c2)c(C)n1C	92	89	/	99
COC(=O)N1CCC(=O)Nc2ccccc21	95	82	-12	/
Cc1ccc(S(=O)Cc2ccc(C(=O)NCc3ccc(OC(C)C)cc3)o2)cc1 (centres undefined)	29	46	/	112
COc1cccc(NCc2ccc(O)c3ncccc23)c1	69	66	-17	/
O=C(NCN1CCN(Cc2ccccc2)CC1)c1ccccc1	76	94	2	/
C=CCOc1cccc(C(=O)Nc2ncn[nH]2)c1	102	102	9	103
COc1ccc(Cl)cc1NC(=O)CN1C(=O)C(C)(C)c2cc(S(=O)(=O)N3CCCC3)ccc21	/	/	-17	101
CC12Nc3ccccc3C1(C)CCO2 (centres undefined)	98	96	-20	101
CN(C)c1ccc(NC(=O)c2ccc(Cl)cc2)cc1C(=O)O	79	76	-21	101
O=C(Nc1nnc(-c2ccc3c(c2)OCCO3)o1)c1ccc(NS(=O)(=O)c2ccccc2)cc1	75	81	-30	103
COc1ccc(OC)c(NC(=O)c2cc3c([nH]c2=O)CC(C)(C)CC3=O)c1	/	/	4	107
O=C(CC1SC(=NC2CC2)NC1=O)NCc1ccccc1 (centres undefined)	84	89	-13	/
NC(=O)c1cc2cc(Br)ccc2o1	80	98	-5	/
O=C(COC(=O)c1ccccc1Sc1ncnc2sc3c(c12)CCC3)NCc1ccco1	84	88	-24	/
Cc1cccc(N2CCN(C(=O)Cn3ncc4ccccc43)CC2)c1C	/	/	-29	107
O=C(CCN1C(=O)C2C3C=CC(C3)C2C1=O)NC1CCCCC1 (centres undefined)	98	98	-5	106
O=C(/C=C/c1ccc(Cl)cc1)N1CCN(c2ccccc2)CC1	104	96	-1	108
Cc1cc2ncn(CCC(=O)Nc3ccccc3F)c2cc1C	94	108	5	104
COc1ccc(S(=O)(=O)N=S(C)(=O)c2ccc(C)cc2)cc1 (centres undefined)	85	88	-12	99
CCn1c(C(=O)O)c(CNC2CCCC2)c2ccc(C)cc21	87	94	-35	139
OC(CN1CCN(C(c2ccccc2)c2ccccc2)CC1)Oc1cccc(C(F)(F)F)c1 (centres undefined)	91	102	-2	108
COc1ccc(S(=O)(=O)Nc2c(C)nc3nc[nH]n3c2=O)cc1	104	105	4	102

4 of these compounds, reformatted:
O=C(NCN1CCN(Cc2ccccc2)CC1)c1ccccc1
  Sa growth 42C: 76
  Sa growth 42C second temp: 94
  HCMV NEC inh: 2
  GIV-Gai inh: /
C=CCOc1cccc(C(=O)Nc2ncn[nH]2)c1
  Sa growth 42C: 102
  Sa growth 42C second temp: 102
  HCMV NEC inh: 9
  GIV-Gai inh: 103
COc1ccc(Cl)cc1NC(=O)CN1C(=O)C(C)(C)c2cc(S(=O)(=O)N3CCCC3)ccc21
  Sa growth 42C: /
  Sa growth 42C second temp: /
  HCMV NEC inh: -17
  GIV-Gai inh: 101
CC12Nc3ccccc3C1(C)CCO2 (centres undefined)
  Sa growth 42C: 98
  Sa growth 42C second temp: 96
  HCMV NEC inh: -20
  GIV-Gai inh: 101

Continuation.
SMILES	Sa growth 42C	Sa growth 42C second temp	HCMV NEC inh	GIV-Gai inh
O=C(CCn1c(=O)c2cccn2c2cccnc21)NCc1ccc(F)cc1	124	79	/	102
CCc1ccccc1S(=O)(=O)Cc1ccc(C(=O)NCCc2ccc(C)cc2)o1	93	56	-28	106
Cc1ccc(-c2noc(CNC(=O)NC3CCCCC3)n2)cc1	109	99	-6	115
Cc1nn(-c2ccccc2)c2sc(C(=O)NN3CC(O)=C(c4ccccc4)C3=N)cc12	82	94	8	/
Cc1ccc(S(=O)(=O)N(CCC(=O)O)c2ccccc2)cc1	105	98	-20	/
Cc1ccc(C2(CC(=O)Nc3ccccc3C)CCOC(C)(C)C2)cc1 (centres undefined)	93	82	-12	/
CC(C)C(=O)N=C1SC2CS(=O)(=O)CC2N1CCc1ccccc1 (centres undefined)	89	84	/	97
O=C1C(O)=C(c2ccc(Cl)cc2)C(c2ccc(Cl)cc2)N1Cc1ccc(F)cc1 (centres undefined)	/	/	11	98
CCCc1n[nH]c(=S)s1	47	41	-29	/
O=S1(=O)C[C@H](N2CCN(c3ccc(F)cc3)CC2)[C@@H](S(=O)(=O)c2ccc(F)cc2)C1	/	/	-18	100
COc1ccc(F)cc1S(=O)(=O)NC(Cc1ccccc1)C(N)=O (centres undefined)	82	96	-1	110
Cc1ccc(-n2ncc(C(=O)NCCN3CCc4ccccc4C3)c2C2CCNCC2)c(C)c1	/	/	6	99
CCc1nnc(NC(=O)Nc2ccc(OC)cc2)s1	/	/	-8	108
Cc1cc(F)c(F)c(C(=O)n2ccnc2)c1Cl	101	91	1	/
COCCNC(=O)Cc1ccccc1OC	99	99	-18	101
CC1=NN(C(N)=S)C(=O)C1	88	36	-1	/
CCCOc1ccc(CNC(=O)c2cc3ccccn3n2)cc1	97	97	/	104
NC(=O)c1cccc2c1C(=O)N(C1CCCCC1)C2	104	77	2	99
CCCCn1c2ccccc2c2nnc(SC(C)C(=O)OC)nc21 (centres undefined)	93	86	-41	96
CCOC(=O)c1cc(-c2nnc(-c3cccc(C)c3)o2)c(C)nc1C	109	83	/	104
Cc1cc(C(=O)Nc2cccnc2)nn1C(C)(C)C	93	93	-17	97
CCCCN(C(=O)c1cnc2n(c1=O)CCS2)c1ccccc1	87	78	-26	98
COc1ccc(S(=O)(=O)Nc2ccc3c(c2)N(C(C)=O)CCC3)cc1F	86	88	/	110
CN(C)C(CNC(=O)Nc1ccccc1)c1cccs1 (centres undefined)	88	89	-15	/
CCN(CC)CCOc1ccccc1N	100	82	-34	100
CC1(C)NC(C(=O)O)Cc2c1[nH]c1ccccc21 (centres undefined)	/	/	3	102
CN(C)Cc1ccc(C(=O)Oc2ccc(C(C)(C)C)cc2)cc1	84	80	-1	/
COc1cccc(N=C=S)c1	84	92	-16	/
CCn1c(SCC(N)=O)nc2ccccc2c1=O	114	75	4	105
CCOC(=O)c1oc2ccccc2c1NC(=O)CC	97	86	-50	103
Cn1nc(C(=O)OCC(=O)NC2CC2)c2ccccc2c1=O	88	93	-25	/
CCOC(=O)c1ccc(NS(=O)(=O)N2CCOCC2)cc1	86	91	-4	106
Cc1cc(C(=O)Nc2cccc(COC(=O)c3cc(C)on3)c2)no1	86	88	-28	105
CCNS(=O)(=O)c1ccc(NC(=O)c2c(-c3ccccc3)noc2C)cc1	101	100	7	110
CCOC(=O)N1CCc2c(sc(NCc3cccnc3)c2C(=O)Nc2ccc(OC)cc2OC)C1	85	67	/	115
Cc1ccc(S(=O)(=O)c2nnn3c2nc(N2CCC(C(N)=O)CC2)c2cc(Cl)ccc23)cc1C	83	83	-8	100
Cc1ccc(NC(=O)CC2C(=O)Nc3ccccc3N2C(C)C(=O)N2CCCCC2)c(C)c1 (centres undefined)	83	98	-32	/
COc1ccc(OC)c(Nc2c(C#N)cnc3cc(OC)ccc23)c1	/	/	-40	104
CC1CCN(Cc2cn3c(-c4ccc(Br)cc4)nnc3s2)CC1	/	/	7&8&-17	104
O=C(/C=C/c1cccc(Br)c1)N1CCc2ccccc21	111	93	-22	/
O=C(O)c1cccc(Sc2cccc(C(=O)O)c2)c1	114	91	0	109
O=C(O)Cn1nnc(-c2ccncc2)n1	99	85	16	102
COc1ccc(CC(=O)Nc2c(C)nc3cc(C)ccn3c2=O)cc1	105	85	-41	106
O=C(OCc1cc(=O)n2nc(-c3cccs3)sc2n1)c1ccccc1Br	104	90	/	108
NS(=O)(=O)c1ccc(CCNC(=O)c2noc3c2CSc2ccccc2-3)cc1	/	/	-20	107
CCCn1ccc2c(OCC(=O)Nc3ccccc3OCC)cccc2c1=O	108	90	/	99
O=C(N1CCCc2ccccc21)N1c2ccccc2Sc2ccccc21	105	103	/	100
CC(=O)Nc1ccccc1-c1nnc(SC(C)C(=O)Nc2c(C)cc(C)cc2C)[nH]c1=O (centres undefined)	/	/	-10	99
O=C(Nc1nnc(C(F)(F)F)s1)C1CC(=O)N(c2ccc(Cl)cc2)C1 (centres undefined)	49	29	/	109
O=C(CN1CCN(Cc2ccc3c(c2)OCO3)CC1)N(c1ccccc1)C1CCS(=O)(=O)C1 (centres undefined)	99	93	-6	/
CC1(C)N(O)C2=C(N=O)CCC(N=O)=C2N1O	84	100	-13	99
CC1(C(=O)NCc2ccc3c(c2)OCO3)CCN(C(=O)c2ccc(Cl)cc2)CC1	/	/	-24	102
O=c1[nH]c2ccccc2n1CCCSc1ncnc2ccccc12	111	65	-1	/
CCCN1CCc2c(sc(NC(=S)NC(=O)c3ccccc3)c2C#N)C1	84	45	/	-59*
Cc1cccc(OCc2nnc(SCC(=O)N3c4ccccc4CCc4ccccc43)o2)c1	119	89	16	101

Compound activity (PubChem BioAssay)
